From PubChem BioAssay
NPYLR7 agonist: activates Aedes aegypti NPYLR7 receptor; HEK293T NPYLR7/Galpha15, GCaMP6s calcium fluorescence; activation, % at 10 µM; 0.15% of 270,000 active; AID 1259423; in the data active = activation above about 40%;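 note: 0% = vehicle and 100% = reference agonist at the receptor; some compounds past the cut are filed as inactive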
NPYLR7 agonist max-min: second read-out of NPYLR7 agonist, no call of its own (marks repeat the call); activation, %; measured here: Max-Min RFU normalised activation; some inactives read as strong as hits;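 span of the calcium signal over five minutes; 0% = vehicle and 100% = native peptide agonist; compound fluorescence can raise it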
* hit, by the source's call; & = joins results of further samples. Not all compounds are listed (hit frequency here may not be typical).

SMILES	NPYLR7 agonist	NPYLR7 agonist max-min
COCCCn1c(SC(C)C)nc2cc(C(=O)OC)ccc2c1=O	-2	27
Cc1cc(F)ccc1S(=O)(=O)NCC(=O)N1CCC2(CCCO2)CC1	6	4
CN1CCC(C)(C(=O)Nc2ccccc2Oc2ccccc2)C1 (stereo not drawn)	-1	-2
Cc1nc(C)c(C(=O)Nc2c(C)nc3c(C)cccn3c2=O)s1	5	2
COCc1cc(C)nc(OCC(=O)N/N=C\c2ccc(-c3cccc(C(=O)O)c3)o2)c1C#N	-10	-20
Cc1ccc(COC(=O)c2cc(N3CCOCC3)ccn2)cc1	3	1
CN(C)S(=O)(=O)c1ccc2c(c1)nc(CCC(=O)NCCc1cccs1)n2C	4	11
COc1ccc(OCc2ccc(-c3nc(C#N)c(NCc4ccc5c(c4)OCO5)o3)o2)cc1	0	1
COc1cccc(C(=O)N(CC(=O)N(Cc2cccn2C)C2CC2)CC(C)C)c1	-7	-5
Cc1nc(CN(C)C2CC3CCC(C2)N3Cc2ccccc2)oc1C (stereo not drawn)	4	9
O=C(Nc1ncc(Cc2ccc(SC(F)F)cc2)s1)c1ccc([N+](=O)[O-])cc1	-6	-13
O=C(NCCNC(=O)C1CC2(CCNCC2)CN1)c1ccc(F)cc1 (stereo not drawn)	22	6
CCc1c(C)cc(C(=O)N2C[C@H]3CC=C(C)C[C@H]3C2)c(=O)n1C	-4	-9
O=C1NCCN2CCN(C(=O)C3CCN(C4CCCC4)CC3)CC12 (stereo not drawn)	3	1
Cc1ccnc(CC(C)N(C)C(=O)C2CCCCC2)c1 (stereo not drawn)	2	-4
COc1ccc(-c2nc(Nc3ccc(Cl)nc3)sc2C)cc1	1	0
CCC(C)C(=O)Nc1cccc(S(=O)(=O)N2CCOCC2)c1 (stereo not drawn)	5	3
Cc1cccc2nc(C(=O)N3CCc4c(cc(-c5ccncc5)c(=O)n4CCN4CCCCC4)C3)cn12	17	4
COc1cc(NC(=O)CCC2CCCN(C(=O)C(=O)c3ccco3)C2)cc(OC)c1 (stereo not drawn)	3	0
Clc1ccc(CN2CCC(OCc3cccnc3)CC2)s1	-4	-6

The last 2 records of the section before are carried over, then new ones follow.
SMILES	NPYLR7 agonist	NPYLR7 agonist max-min
COc1cc(NC(=O)CCC2CCCN(C(=O)C(=O)c3ccco3)C2)cc(OC)c1 (stereo not drawn)	3	0
Clc1ccc(CN2CCC(OCc3cccnc3)CC2)s1	-4	-6
CSc1ccc2cc(CN(C)Cc3nncn3C)c(=O)[nH]c2c1	12	-9
CCC(C)N(Cc1cc(N)ccc1N(C)C)C(=O)C1CC1 (stereo not drawn)	-6	0
COc1ccc(-n2nc(-c3ccc(OC)cc3OC)cc2C(=O)O)cc1	11	19
N#Cc1nn(CN2CCC3(CC2)OCCO3)c2ccc(Cl)cc12	-1	-2
O=C1CCCN1C1CCN(Cc2nnc(C3CC3)o2)CC1	-2	-3
O=C(C1CCC1)N1CCN(c2nccc(-c3cccc(C(F)(F)F)c3)n2)CC1	-2	-5
CC(=O)N1CCc2cc(S(=O)(=O)N(C)c3ccccc3C(N)=O)ccc21	-1	-2
CC(Cn1cncn1)NCc1cccnc1Oc1ccc(F)c(F)c1 (stereo not drawn)	4	2
Cc1cn2c3c(=O)n(CCc4ccccc4)c(=O)n(C)c3nc2n1C	0	-4
O=C(Cc1ccc(F)cc1)N(CCn1cccn1)c1nc2ccccc2s1	-7	-6
O=C(c1cccnc1Cl)N1CCN(C(c2ccccc2)c2ccc(Br)cc2)CC1 (stereo not drawn)	-4	0
CCn1c(CN2CCN(C(=O)c3ccco3)CC2)nc2c1c(=O)n(C)c(=O)n2C	1	10
COc1ccc(Nc2nc(-c3cc4cccc(OC)c4oc3=O)cs2)cc1	1	-8
CN(C)c1cc(NC[C@H]2CCCO2)ncn1	10	4
Cc1noc(C)c1CSCC(=O)NCC1(O)CCC2(CC1)OCCO2	5	6
Cc1sc2nc(-c3ccccc3)nc(N(C)CC(C)O)c2c1C (stereo not drawn)	-3	36
O=C(NCC(=O)N1CCCCC1)c1ccc(Cl)cc1Cl	8	2
CC1(O)CCCN(c2nc(-c3cccnc3)nc3c2CCNCC3)C1 (stereo not drawn)	-1	-2
CCN(CC)S(=O)(=O)c1cccc(C(=O)NC(C)CCC2CCCO2)c1 (stereo not drawn)	3	1
O=C(NCc1csc(-c2cnccn2)n1)c1cc2ccccc2s1	11	9
CN1Cc2ccccc2C2CCc3ccccc3C21 (stereo not drawn)	9	13
O=C(c1cccc(CC2CCNCC2)c1)N1CCc2[nH]ncc2C1	-3	-6
CCOc1ccc(-c2cccc(NS(=O)(=O)c3cccc(C(F)(F)F)c3)c2)nn1	-1	5
CC(=O)Nc1cccc(NC(=O)CSc2nc(=O)n(N3CCN(C)CC3)c3c2CCC3)c1	-3	-7
CCn1ccnc1CNc1ccc(C(=O)N2CCC(Cn3cccn3)CC2)cn1	6	3
COc1cc(NC(=O)C(N)CC(C)C)cc2ccccc12 (stereo not drawn)	-6	-4
NC(=O)CC1CCCCN1Cc1cccc(C(F)(F)F)c1 (stereo not drawn)	7	4
O=C(CCC1CCCN(C(=O)C2=CCCCC2)C1)NCc1ccccc1F (stereo not drawn)	-20	-21
CC(=O)Nc1ccsc1C(=O)N1CCN2C(=O)CN(C)C(=O)C2C1 (stereo not drawn)	0	-3
O=C(CN1CCN(Cc2nc(-c3cccs3)cs2)CC1)N1CCOCC1	-20	-23

Arranged by formula weight (largest number first): part of the list above
SMILES	NPYLR7 agonist	NPYLR7 agonist max-min
O=C(CN1CCN(Cc2nc(-c3cccs3)cs2)CC1)N1CCOCC1	-20	-23
O=C(CCC1CCCN(C(=O)C2=CCCCC2)C1)NCc1ccccc1F (stereo not drawn)	-20	-21
CC(=O)Nc1ccsc1C(=O)N1CCN2C(=O)CN(C)C(=O)C2C1 (stereo not drawn)	0	-3
NC(=O)CC1CCCCN1Cc1cccc(C(F)(F)F)c1 (stereo not drawn)	7	4

3 successive entries out of the list so far, quoted:
SMILES	NPYLR7 agonist	NPYLR7 agonist max-min
CN1Cc2ccccc2C2CCc3ccccc3C21 (stereo not drawn)	9	13
O=C(c1cccc(CC2CCNCC2)c1)N1CCc2[nH]ncc2C1	-3	-6
CCOc1ccc(-c2cccc(NS(=O)(=O)c3cccc(C(F)(F)F)c3)c2)nn1	-1	5

Carrying on:
SMILES	NPYLR7 agonist	NPYLR7 agonist max-min
CC(C)C(Oc1ccc(Br)cc1)C(=O)O (stereo not drawn)	2	1
Cc1nn(CC(=O)N2CCCc3ccccc32)c(=O)c2c1cnn2C(C)(C)C	10	9
CC(C)(C)C1CNCCN1CCOc1ccccc1 (stereo not drawn)	-2	314
C=CCOC(=O)c1cc(-c2ccc(/C=C3\C(=O)N(c4ccc(Cl)c(Cl)c4)N=C3C)o2)ccc1Cl	7	15
CCCCc1nc2sc3c(NCCCO)ncnc3c2c2c1COC(C)(C)C2	3	1
O=C(/C=C/c1ccsc1)CC(O)(c1ccccc1)C(F)(F)F (stereo not drawn)	0	41
CCOCCCN(CC(=O)N(Cc1ccccc1)Cc1cccn1Cc1ccc(F)cc1)C(=O)c1cccc(F)c1	-8	1
CC(=O)NC(C)C(=O)NS(=O)(=O)N1CCOc2ccccc21 (stereo not drawn)	-3	-5
C=CCc1c(C)c(C#N)c2nc3ccccc3n2c1NCCN(CC)CC	6	1
Cc1ccc(OCCn2c(CCCO)nc3ccccc32)cc1	1	8
CC(C)c1ccc(C2(C)NC(=O)N(CC(=O)Nc3ccc(Cl)cc3)C2=O)cc1 (stereo not drawn)	1	1
COc1ccc(N(C)S(=O)(=O)c2ccc(OC)c(N3CCN(C(=O)c4ccc(F)c(F)c4)CC3)c2)cc1	22	23
COc1cccc2sc(N(CCN(C)C)C(=O)c3ccco3)nc12	-7	-9
O=C1NC(c2ccccc2)(C(F)(F)F)C(=O)N1CN(C1CCCC1)C1CC1 (stereo not drawn)	2	1
COc1ccc(-c2cc(N)n(-c3ccc(C(=O)NCCc4ccccn4)cc3)n2)cc1	-9	-12
Cc1nnc(Oc2cccc(C(N)=O)c2)c(C#N)c1C	6&-2	3&-2
Cc1ccc2c(=O)cc(-c3ccc(F)cc3)oc2c1	-3	-2
CC1C(=O)N(c2ccccc2-c2ccccc2)CCN1C(=O)c1ccc(Cl)cc1 (stereo not drawn)	-6	-6
O=C(Nc1ccc(Cl)cc1C(F)(F)F)c1cccn(OCc2ccc(F)cc2)c1=O	8	4
CCN1C(=O)N(CCCc2cccnc2)C(=O)C12CCN(Cc1ccc3c(c1)CCO3)CC2	15	3
O=C(Nc1nccs1)C1=CC=CN2CCS(=O)(=O)N=C12	0	-1
Cc1[nH]cnc1-c1nccn1Cc1cccc(-n2cccn2)c1	2	-2
CCSc1nnc2c(n1)OC(c1cc(OC)c(OC)c(OC)c1)Nc1ccccc1-2 (stereo not drawn)	-8	-15
C=CCNc1nc2c(c(=O)[nH]c(=O)n2C)n1CCO	15	8
COc1ccc(C(CNC(=O)C2CC(=O)N(Cc3ccccc3)C2)N2CCCC2)cc1 (stereo not drawn)	-4	-5
COc1cccc(-c2nc(OC)nn2-c2cccc(NS(=O)(=O)c3ccc(C)cc3)c2)c1	22	34
Cc1ncsc1C(=O)N1CCOC(Cc2cccc(C(F)(F)F)c2)C1 (stereo not drawn)	9	4
CC(C)c1ccc(/C=N\NC(=O)CSc2nnc(-c3ccc(Cl)cc3)n2-c2ccccc2)cc1	9	5
CCC1(c2ccccc2)NC(=S)N(C)N1 (stereo not drawn)	-15	-16
Cc1nccn1-c1cc(NCCNC(=O)Nc2cccc(C(F)(F)F)c2)ncn1	6	4
CC=CCn1c(=O)c2c(nc3n2CC(C)=NN3CCN2CCOCC2)n(C)c1=O	4	1
O=c1c2ccccc2nc(SCc2cc(=O)n3ccccc3n2)n1-c1ccc2c(c1)OCO2	7	4
O=C(Nc1cc(Cl)ccc1Cl)c1cccn(OCc2ccc(F)cc2)c1=O	10	7
CN(C)c1ccc(CNc2cncc(-n3cccn3)n2)cc1	4	4
Cc1cccc(Oc2cnn(C)c(=O)c2Nc2ccc(C(=O)NCc3cccnc3)cc2)c1C	-9	-1
CCc1ccc(-c2nc(C(N)=O)c3[nH]c(=O)n(-c4ccc(C)c(C)c4)c3n2)cc1	-5	-8
Cc1nc(C2CCNCC2)cc(N2[C@@H]3CC[C@H]2CC(O)C3)n1 (stereo partly drawn)	14	8
COc1ccc(-c2ccc(CN3CCCC3)cn2)c2ccc(C)nc12	9	5
CCOCCCNC(=O)c1cc(NC(=O)c2cc(C(F)(F)F)cc(C(F)(F)F)c2)ccc1N1CCc2ccccc2C1	-4	6
CN(C)CCOC(c1ccccc1)c1ccccc1	-8&-10&2&1&1	-15&-15&-3&-4&-29
C=C(C)COc1ccc2oc(C(C)(C)C)c(C(=O)O)c2c1	-2	-4
CCOc1c(Br)cc(F)cc1NC(=O)c1cc(C)oc1C	1	2
CC1(C)CC(C#N)(N2CCOCC2)CCO1 (stereo not drawn)	3	1
COc1cccc(COC(=O)c2nnn(-c3ccc(Cl)cc3)c2C)c1	6	-5
Cc1cc(Cl)ccc1S(=O)(=O)N(C)c1cc(F)ccc1F	-6	-6
Nc1ccc(S(=O)(=O)Nc2cc([N+](=O)[O-])ccc2O)cc1	0	48
O=C(c1cc(CN2CCc3ccccc3C2)on1)N1CCCCC1CCO (stereo not drawn)	4	13
COc1ccc(N2CCN(C(=O)C3CCCCC3C(=O)Nc3cccc(-c4ccnc(C)n4)c3)CC2)cc1 (stereo not drawn)	-7	-13
Cc1csc(C(C#N)C=Nc2sc3c(c2C#N)CCC(C)C3)n1 (stereo not drawn)	8	8
COc1cccc(NC(=O)c2cc(C3CC3)n(C3CCS(=O)(=O)C3)n2)c1 (stereo not drawn)	5	2

New compounds follow:
SMILES	NPYLR7 agonist	NPYLR7 agonist max-min
CCOC(=O)COc1ccccc1C1CC(c2ccc(Br)cc2)=NN1C(C)=O (stereo not drawn)	-5	-9
O=C(CSc1nc(=O)n(CCN2CCOCC2)c2c1CCC2)Nc1cccc2ccccc12	1	-3
c1nc(N2CCC(OCCN3CCCCC3)C2)c2ccsc2n1 (stereo not drawn)	1	1
Cc1[nH]c2ccccc2c1C1=CN2CCS(=O)(=O)N=C2S1	1	4
CCc1ccc(-c2cnc(C3CC(=O)N(C(C)C)C3)[nH]2)cc1 (stereo not drawn)	19	17
CCN(Cc1noc(C)n1)C(=O)c1cnc(Nc2ccccc2)nc1	8	6
Cc1ccc(Nc2nc(N3CCN(c4ccc(F)cc4)CC3)nc3nccnc23)cc1Cl	3	5
COc1cc(NC(=O)Nn2cnnc2)cc(OC)c1OC	-15&2	-22&-1
COc1ccc(CC2(C(=O)O)CCN(Cc3cnc[nH]3)CC2)cc1	-9	-12
Cc1ccc(-c2nc3ccc(C)cn3c2NC2CCCCC2)cc1	-4	-1
CCCNCc1cc(-c2cc(C)ccc2C)on1	22	8
CC1=C(C(=O)NC2CCCC2)C2(CCCCC2)OC1=O	6	3
Cc1ccc(-c2ccc(C(=O)N3CCOCC3)o2)c(-n2cccn2)c1	2	-2
Cc1c(C(=O)N2CCCC(C(=O)N3CCCCC3)C2)cnn1-c1cccc(Cl)c1 (stereo not drawn)	2	0
COc1ccc(-n2c(=O)[nH]c3c(C(N)=O)nc(-c4ccccc4C)nc32)cc1OC	18	6
O=C(c1cccs1)N(Cc1c(-c2ccccc2)noc1N1CCCC1)C1CC1	3	7
Cc1cc(N2CCOCC2)nc(SCc2cccc(C(=O)NCCc3ccccn3)c2)n1	4	12
Cc1noc(-c2cccs2)c1C(=O)N1CCC(Cc2ccc3c(c2)OCO3)CC1	-1	7
COCCCNc1nc(N)c([N+](=O)[O-])c(Nc2ccc(C)c(C)c2)n1	0	-2
CCOC(=O)C=C1SCC(=O)N1CC(=O)OCC	5	9
CN(C)C(CNC(=O)Nc1cccc(OCc2cccnc2)c1)C1CCCCC1 (stereo not drawn)	-1	-1
